Assay outcomes (PubChem)
VDR inhibitor = Inhibitors of the vitamin D receptor (VDR): qHTS. VDR-SRC2-3 peptide fluorescence polarization, 2 h. Potency, µM, inactives show max response, negative = inhibition, most hits filed as inhibitors. hit rate 0.93% among 400,000. AID 504847, 2011; active = well fitted inhibition curve with a large enough effect; inconclusive = small, poorly fitted or top-dose-only effect, or another doubt; inactive = no such curve, though single readings can be large or run the other way; also: series mostly up to about 120 µM
Target sequence (P11473 whole entry, looked up): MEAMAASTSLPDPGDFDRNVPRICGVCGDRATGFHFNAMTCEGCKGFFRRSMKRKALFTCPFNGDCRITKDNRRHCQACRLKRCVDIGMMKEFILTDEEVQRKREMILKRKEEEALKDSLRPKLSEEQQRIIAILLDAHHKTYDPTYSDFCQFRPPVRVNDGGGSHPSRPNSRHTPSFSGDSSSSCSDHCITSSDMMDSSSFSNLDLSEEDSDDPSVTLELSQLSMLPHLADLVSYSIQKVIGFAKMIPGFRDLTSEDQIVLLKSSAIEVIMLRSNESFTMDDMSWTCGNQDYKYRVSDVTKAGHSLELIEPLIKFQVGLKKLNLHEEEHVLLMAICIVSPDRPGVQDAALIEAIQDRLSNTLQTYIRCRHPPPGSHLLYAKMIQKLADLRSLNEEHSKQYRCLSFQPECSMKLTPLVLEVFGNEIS
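Signal is fluorescence polarization, reporting how far test compounds block the interaction of VDR with the SRC2-3 coregulator peptide after a 2 h room-temperature incubation.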
The depositor's hits bear a star; ? = inconclusive; & = joins results of further samples; [ ] = dose if it differs, or a comment. % is scaled to controls: 0 for no effect and ±100 for the full control effect; potency is read from the fitted curve at half-maximal effect. Not all compounds are listed; rates above refer to the full screens.

SMILES	VDR inhibitor
Cc1ccccc1NC(=O)/C(=C\c1cccs1)NC(=O)c1ccccc1	-4.1%
CSCC(CO)NS(=O)(=O)c1ccc(C)cc1 (stereo unspecified)	-6.2%
COc1ccccc1NC(=O)CSc1oc(-c2cccs2)nc1S(=O)(=O)c1ccccc1	-3.6%
O=C(CSc1nnc(CNC(=O)c2ccco2)o1)Nc1ccc(F)cc1F	2.7%
COc1cc(/C=N/OCC(=O)NC2CCS(=O)(=O)C2)ccc1OC(F)F (stereo unspecified)	-4.1%
CSc1ccccc1OCc1cc(C(=O)NCCN2CCCC(O)C2)no1 (stereo unspecified)	-3.2%
Cc1ccc(CNC(=O)CS(=O)(=O)c2ccccc2)cc1	-6.8%
Cc1ccc2c(CC(=O)N3CCN(c4cccc(Cl)c4)CC3)coc2c1C	13.8%
Cn1cc(CCC(=O)N2CCCC(CCC(=O)NCc3ccc(F)c(F)c3)C2)cn1 (stereo unspecified)	9.9%
Cc1cc(C2(c3ccc(O)c(C)c3)C(=O)Nc3ccccc32)ccc1O	30.6%[activator]
CN(C)C(=O)CSc1nnc(-c2ccc(F)cc2)c2ccccc12	-8.1%
COc1ccc2c(c1)c1c(c(=O)n(CCc3ccccc3)c(=O)n1Cc1ccccc1)n2C	-3.0%
CCC(C)[C@H](NC(=O)N1CC(=O)Nc2ccccc21)C(=O)N1CCC(C(=O)O)CC1 (stereo partly specified)	-9.6%
CCC(=O)N1c2ccc(S(=O)(=O)N3CCN(C)CC3)cc2CC1C (stereo unspecified)	-16.5%
CCOC(=O)C1CCCN(C(=O)c2cc3c(=O)n(C)c4ccccc4c3s2)C1 (stereo unspecified)	-2.9%
Cc1c(NC(=O)CSc2nnc(-c3cccc(Cl)c3)o2)c(=O)n(-c2ccccc2)n1C	-4.2%
CCc1nnc(NC(=O)CCC(=O)NCc2ccccc2Cl)s1	7.4%
CCOC(=O)Nc1nc2ccccc2s1	10.5%
O=C1CC(c2ccccc2)c2c(O)cc(O)cc2O1 (stereo unspecified)	-1.8%
Cc1ccn2c(NC3CCCCC3)c(-c3cccc(SC4CCCCC4)c3)nc2c1	-15.5%
COc1ccc(C2N(C(=O)CN3CCCC3)CCCN2S(=O)(=O)c2ccccc2)cc1 (stereo unspecified)	4.3%
CCN(CCCC(=O)c1ccc(F)cc1)CCc1ccccc1	2.9%
Cc1cc(Cl)ccc1OCCn1cncn1	-7.8%
O=C(COC(=O)Cc1ccc(Cl)cc1)NCc1ccc(F)cc1	-12.5%
COCC(C)OC(=O)C(C#N)c1nc2ccccc2nc1N1CCN(Cc2ccccc2)CC1 (stereo unspecified)	-18.2%
Cn1c(CS(=O)Cc2c(Cl)cccc2Cl)nnc1SCc1ccc(Cl)cc1 (stereo unspecified)	-2.5%
COC(=O)c1ccccc1NC(=O)Cn1cnc2c(cnn2-c2ccc(C)c(C)c2)c1=O	0.9%
C[C@H](NC(=O)[C@@H]1Cc2ccccc2CN1C(=O)OC(C)(C)C)C(=O)NCc1ccco1	-5.9%
Nc1nc(-c2ccccc2)c(N=Nc2cccc3ccccc23)s1	3.7%
COc1ccc(-c2ccc(C3C4C=CCCC4(C)C(=O)N3Cc3ccccc3)c(F)c2)cc1OC (stereo unspecified)	2.7%

Ordered by heavy-atom count (lowest first): part of the list above
SMILES	VDR inhibitor
O=C1CC(c2ccccc2)c2c(O)cc(O)cc2O1 (stereo unspecified)	-1.8%
Nc1nc(-c2ccccc2)c(N=Nc2cccc3ccccc23)s1	3.7%
Cn1cc(CCC(=O)N2CCCC(CCC(=O)NCc3ccc(F)c(F)c3)C2)cn1 (stereo unspecified)	9.9%

3 entries picked at random from those above:
SMILES	VDR inhibitor
Nc1nc(-c2ccccc2)c(N=Nc2cccc3ccccc23)s1	3.7%
COC(=O)c1ccccc1NC(=O)Cn1cnc2c(cnn2-c2ccc(C)c(C)c2)c1=O	0.9%
CCN(CCCC(=O)c1ccc(F)cc1)CCc1ccccc1	2.9%

Continued:
SMILES	VDR inhibitor
CCCN(CCC)S(=O)(=O)c1ccc(C(=O)Nc2cc3oc4ccccc4c3cc2OC)cc1	-15.4%
CCC(C)(CN(C)C)OC(=O)c1ccccc1 (stereo unspecified)	-9.1%
COc1ccc(-c2nnc(CSc3nc4ccccc4c(=O)n3CC3CCCO3)o2)cc1OC (stereo unspecified)	0.6%
COc1cccc(NC(=S)NCCN2CCOCC2)c1	-15.2%
COc1ccc(NC(=O)COC(=O)CCCOc2ccc(Cl)cc2Cl)cc1Cl	3.6%
Cc1ccc(S(=O)(=O)NCC(=O)N(CC(=O)NC2CCCC2)CC2CCCO2)cc1 (stereo unspecified)	7.8%
CCOC(=O)N1CCN(S(=O)(=O)N2CCCC(C(=O)NCc3ccc(F)cc3)C2)CC1 (stereo unspecified)	-7.3%
O=C(Nc1ccc(Nc2ccccc2)cc1)c1ccc(F)cc1	-18.0%
Cc1cc2oc(=O)cc(CN3CCCCC3C)c2cc1Cl (stereo unspecified)	3.0%
CC1CCCC(C)N1C(=O)COc1cccc(Oc2ccccc2)c1 (stereo unspecified)	-16.7%
CC1=NN(Cc2ccccc2)C(=O)C1C(c1ccc(Cl)cc1)C(C#N)C#N (stereo unspecified)	39.8µM*
O=C(Nc1ncccn1)C1=C(O)c2ccccc2S(=O)(=O)N1Cc1ccccc1	-4.3%
Cc1cc(C)c(Cn2c(=O)n(CCC(=O)NCCc3ccccc3)c(=O)c3ccccc32)c(C)c1	-13.0%
Cc1ccccc1CNC(=O)CN(c1ccccc1Cl)S(C)(=O)=O	-15.8%
O=C(Nc1ccccn1)c1ccc(=O)[nH]n1	-0.9%
O=C(c1cccnc1)C1CCCN(Cc2nc(Cc3ccccc3F)no2)C1 (stereo unspecified)	4.7%
NC(=O)N/N=C/c1cccc(C(F)(F)F)c1	-8.9%
COc1ccc(C(=O)Nc2c(N)nc[nH]c2=O)cc1	15.2%
CSCCC(NC=O)C(=O)NC(C)C(=O)O (stereo unspecified)	11.4%
Cc1cc(C)nc(NC(=O)c2ccc(C)c(C)c2)n1	7.9%
COc1ccc(-c2nnc3ccc(SCC(=O)NCc4ccco4)nn23)cc1	7.3%
Oc1c(Cl)cc(Cl)cc1/C=N/c1ncn[nH]1	-18.6%
Cn1c(=O)c2c(nc(SCCN3CCOCC3)n2Cc2ccccc2Cl)n(C)c1=O	-1.8%
COCCN(Cc1cc2cc3c(cc2nc1Cl)OCO3)C(C)=O	-21.2%
COc1ccc(CC(=O)Nc2c3c(nn2-c2cccc(C)c2C)CS(=O)C3)cc1OC (stereo unspecified)	-1.1%
CC(C)c1ccc(NC(=O)C2C3C=CC4(CN(Cc5cccnc5)C(=O)C24)O3)cc1 (stereo unspecified)	-11.7%
COc1ccc(C(=O)Cn2cc[n+](C)c2)cc1	-2.4%
Cc1cc(N/N=C/c2ccc(O)cc2O)nc(-n2nc(C)cc2C)n1	-4.3%
COc1ccc(CC(=O)Nc2ccc(S(=O)(=O)N(C)C)cc2)cc1OC	-1.9%
O=C(O)CCC(=O)Nc1ccc(Sc2ccc([N+](=O)[O-])cc2)cc1	-16.0%
CCc1nnc(NC(=O)c2sc3nc(C)cc(COC)c3c2N)s1	12.2%
CC(C)C[C@H]1CN([C@@H](CC(C)C)CN2CCCC2CN2C(=S)NC[C@@H]2Cc2ccc(O)cc2)C(=S)N1CCc1ccccc1 (stereo partly specified)	13.7%
COc1ccc(NC(=O)CSC2CCCCC2)cc1	14.3%
CC(C)=C1C2CCC1C(C(=O)Nc1sc(C)c(-c3ccc(C(C)C)cc3)c1C(N)=O)C2C(=O)O (stereo unspecified)	-13.0%
COc1cc(OC)cc(C(=O)Nc2nnc(NC(=S)Nc3ccccc3)s2)c1	-10.6%
CCc1ccccc1NC(=O)CC(C)n1nc(C)cc1C (stereo unspecified)	2.1%
COc1ccc(/C=N/Nc2nc(C)cc(-c3ccccc3)n2)c(OC)c1	-8.6%
O=C(NCC1CCCO1)/C(=C\c1ccccc1)NC(=O)c1ccccc1 (stereo unspecified)	-14.6%
CC(=O)Nc1ccc(S(=O)(=O)N2CCC(n3c(C(F)(F)F)nc4cccnc43)CC2)cc1	7.9%
COc1ccc(CNC(=O)Nc2cccc(C(F)(F)F)c2)cc1OC	-0.7%

Laid out differently: results already given.
canonical_smiles | VDR inhibitor
CC(C)C[C@H]1CN([C@@H](CC(C)C)CN2CCCC2CN2C(=S)NC[C@@H]2Cc2ccc(O)cc2)C(=S)N1CCc1ccccc1 (stereo partly specified) | 13.7%
COc1ccc(NC(=O)CSC2CCCCC2)cc1 | 14.3%
CC(C)=C1C2CCC1C(C(=O)Nc1sc(C)c(-c3ccc(C(C)C)cc3)c1C(N)=O)C2C(=O)O (stereo unspecified) | -13.0%
COc1cc(OC)cc(C(=O)Nc2nnc(NC(=S)Nc3ccccc3)s2)c1 | -10.6%
CCc1ccccc1NC(=O)CC(C)n1nc(C)cc1C (stereo unspecified) | 2.1%
COc1ccc(/C=N/Nc2nc(C)cc(-c3ccccc3)n2)c(OC)c1 | -8.6%

(list continues)
SMILES	VDR inhibitor
COc1cccc(-c2nnc3n(Cc4ccc(F)cc4)c(=O)c4ccccc4n23)c1	10.5%
Cc1ccc2[nH]c(C(=O)N3CCCCC3)cc2c1	4.7%
CC(=O)C1(C)N(O)C(C)(C)C(c2ccco2)=[N+]1[O-] (stereo unspecified)	14.9%
Cc1ccc(CNC(=O)CSc2nc3n[nH]c(C)c3c(=N)n2-c2cccc(C)c2)cc1	5.7%&13.3%
CN(CC(=O)Nc1n[nH]c(=S)s1)S(=O)(=O)c1cccc2cccnc12	-1.4%
CC(=O)Nc1ccc(Oc2ccc(-c3noc(C)n3)cc2)cc1	-1.8%
COC(=O)C1=C(C(=O)OC)[C@@H]2N(Cc3ccccc3)c3ccccc3[C@@]23C[C@@H](C(=O)OC)N(C(=O)c2cccs2)C3=N1	-5.6%
COc1cc(/C=N/O)cc(Br)c1OS(=O)(=O)c1ccc(C)cc1	4.8%
COCCNC(=O)C(c1ccc(O)cc1)N(Cc1ccco1)C(=O)CCC(=O)Nc1ccccn1 (stereo unspecified)	6.4%
CCc1ccccc1NC(=O)c1cccc(Oc2ccc([N+](=O)[O-])cc2Cl)c1	5.9%
CNC(=O)/C(C#N)=C/c1c(N(Cc2ccccc2)Cc2ccccc2)nc2c(C)cccn2c1=O	-19.1%
CCOC(=O)C1(Cc2ccccc2C)CCCN(C(=O)CN2C(=O)CSC2=O)C1 (stereo unspecified)	-18.3%
O=C1NC(=S)/C(=C\c2ccc(-c3ccccc3Cl)o2)S1	-19.9%
COc1ccc(C(=O)N2CCC(n3nnc4cc(F)ccc43)CC2)cc1OC	-6.9%
Cc1ccc(Oc2ncccc2N)c2c1CCC2	-8.9%
Cc1ccc(NC(=O)Cn2nnc(C(=O)NCc3ccc4c(c3)OCO4)c2N)cc1	2.3%
Cc1ccc(-n2ncc(C(=O)NCCc3ccccc3)c2C2CCN(C(=O)OC(C)(C)C)CC2)c(C)c1	-0.6%
CC(=O)Oc1c(C)c2c3c(c1OC(C)=O)[C@@H](C)CC[C@@H]3[C@@H](C)C[C@H]2C=C(C)C	-19.0%
Cc1ccc(C(=O)Nc2nc3n(n2)C(c2ccc(F)cc2)C=C(c2ccccc2)N3)cc1 (stereo unspecified)	19.9%
CCn1c(C)nc2cc(S(=O)(=O)C(F)(F)F)ccc21	5.9%
COc1cc(NC(=O)CSc2ccc(-c3ccco3)nn2)cc(OC)c1	-11.5%
COc1ccc(OC)c(C(=O)COC(=O)COc2ccccc2F)c1	-11.7%
COC(=O)CSc1nc(SCc2ccc(C)cc2)nc2c1CCCC2	5.6%
Cc1ccnc(NC(c2cccnc2)c2ccc3cccnc3c2O)c1 (stereo unspecified)	?
Cc1cc(NC(=O)c2ccccc2Cl)n(C(C)(C)C)n1	-0.6%
Cc1cc(C)nc(SCC(=O)Nc2ncc(C(F)(F)F)cc2Cl)n1	3.4%
CCOC(=O)Cc1csc(NS(=O)(=O)c2ccc(Cl)cc2)n1	-17.0%
COc1ccc([C@@H]2CC=C(C(=O)O)[C@H](c3ccc(Cl)cc3)N2S(=O)(=O)c2ccc(Cl)cc2)cc1	?
COc1ccc(/C=N/NC(=O)CCn2cnc(-c3ccccc3)c2-c2ccccc2)cc1OC	-29.3%
Oc1cccc(C(=S)N2CCCCC2)c1	?
COc1cc(SC)ccc1C(=O)NC1CCCCC1	23.0%
CC[C@H](C)[C@H](NC(=O)[C@H](Cc1ccc(O)cc1)NC(=O)[C@H](Cc1cnc[nH]1)NC(=O)[C@H](CCCNC(=N)N)NC(=O)[C@H](CC(C)C)NC(=O)[C@H](C)NC(=O)[C@H](CO)NC(=O)[C@H](Cc1ccc(O)cc1)NC(=O)[C@H](Cc1ccc(O)cc1)NC(=O)[C@H](CCCNC(=N)N)NC(=O)[C@H](C)NC(=O)[C@H](CC(C)C)NC(=O)[C@H](CC(=O)O)NC(=O)[C@H](CCC(=O)O)NC(=O)[C@H](C)NC(=O)[C@@H]1CCCN1C(=O)[C@H](C)NC(=O)[C@H](CC(=O)O)NC(=O)[C@H](CCC(=O)O)NC(=O)CNC(=O)[C@@H]1CCCN1C(=O)[C@H](CC(N)=O)NC(=O)[C@H](CC(=O)O)NC(=O)[C@@H]1CCCN1C(=O)[C@H](CCCCN)NC(=O)[C@@H](N)CO)C(=O)N[C@@H](CC(N)=O)C(=O)N[C@@H](CC(C)C)C(=O)N[C@H](C(=O)N[C@H](C(=O)N[C@@H](CCCNC(=N)N)C(=O)N[C@@H](CCC(N)=O)C(=O)N[C@@H](CCCNC(=N)N)C(=O)N[C@@H](Cc1ccc(O)cc1)C(N)=O)[C@@H](C)O)[C@@H](C)CC	-3.1%
